# Screening results from PubChem.
# Bead autofluor = counter-screen for toxin protease inhibitors: compound fluorescence. compound autofluorescence counterscreen, microsphere flow cytometry; active compounds read high. fluorescence intensity (test concentration not listed). 360,000 compounds, 3.1% hits. AID 624483;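 active means at least 3 SD above the mean of all compounds, about 16000 in these data; inconclusive means too few beads counted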;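 further: 100 nL of 1 mM stock went into each well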
# RN4220 kill = kills Staphylococcus aureus RN4220 | S. aureus RN4220 growth, OD600, 16 h | AID 1259311 | inhibition, % (concentration not given with the values) | 330,000 compounds, 0.33% hits;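 active means z-score of -3 or lower and OD600 up to 0.18 on both plates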;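 further: plate controls were untreated cells for no effect and reference antibiotic for full effect; stock transfer was 100 nL into about 80 µL; one replicate is shown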
# ugtP null kill = kills S. aureus RN4220 lacking UgtP; S. aureus RN4220 ugtP deletion, OD600 growth, 16 h; some inactives read as strong as hits; growth inhibition, % (concentration not given with the values); 330,000 compounds, 0.54% hits; AID 1259309;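 active means z-score under -3 and OD600 up to 0.15 on both plates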;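 further: plate controls were untreated wells for no effect and antibiotic for full effect; wells of about 80 µL received 100 nL stock; the first replicate is given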
# BJeLR viability = kills HRASV12-expressing BJeLR cells; 300,000 compounds, 0.17% hits; BJeLR (HRASV12) viability, CellTiter-Glo ATP luminescence, 48 h; reference of the scale not given here; inhibition, % (concentration not given with the values);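 active means replicate mean above 50%; inconclusive means above 50% but judged a plate artefact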;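 further: 50 nL library stock added to about 25 µL; numbers are from one replicate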
# PrP 5UTR inh = suppresses PrP 5' UTR mRNA reporter expression; cell-based PrP 5' UTR mRNA reporter, plate reader; inhibition, % (test concentration not listed); 340,000 compounds, 0.35% hits; AID 488862;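 active means every replicate at 50% or more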;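 further: 0 = median of the neutral control wells; tested in H4 reporter cells; numbers are from one replicate; inactives centre near -14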
# Mtb hypoxia rep = reduces hypoxia-regulated biosensor signal in M. tuberculosis; M. tuberculosis hypoxia-regulated fluorescent reporter, fluorescence; fluorescence inhibition, % (no concentration beside the values); 300,000 compounds, 0.1% hits; AID 1159583;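 active means 35 to 45% if threefold the growth effect, above 45% if 1.5-fold the growth effect; inactive means the rest, general growth blockers included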;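 further: wells of about 50 µL received 100 nL stock; 0% = vehicle wells and 100% = reference inhibitor wells; whole bacteria with a GFP reporter of the hypoxia response; strong numbers were not always called active; many hits fall short of the cut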
# Mtb hypoxia rep growth = recorded beside Mtb hypoxia rep, whose call it bears; growth inhibition, %; measured here: M. tuberculosis growth (absorbance);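 0% = vehicle and 100% = reference antibiotic; read after six days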
# The depositor's hits bear a star; ? = inconclusive; . = not tested or not shown; & = joins results of further samples.
SMILES,Bead autofluor,RN4220 kill,ugtP null kill,BJeLR viability,PrP 5UTR inh,Mtb hypoxia rep,Mtb hypoxia rep growth
CN(CC(=O)Nc1nc2ccccc2s1)S(=O)(=O)c1ccc(Br)cc1,21220*,-4.8,-38,4,0,-5,11
CCCCc1cc2c(s1)CCCCC2=NO,.,6.1,-2,.,.,-6,9
CON/C=N/C(=S)Nc1ncc(C(F)(F)F)cc1Cl,4888,14,0,10,-1,10,0
CCCn1nnnc1NCc1ccc(N2CCCC2)cc1,17311*,6.1,5,5,-35,-5,3
CCCCc1ccc(-c2c(C#N)c(N)nc3c2CCCC3)s1,4318,-9.1,24,-6,-5,-4,11
CCc1ccc(-c2cc(N)n(-c3ccccc3)n2)cc1,3214,2.8,1,13,-147,12,4
O=C(c1cc2cccc([N+](=O)[O-])c2oc1=O)N1CCOCC1,3132,2.1,2,-2,-14,6,14
O=C(NN=Cc1ccc(O)cc1)Nc1cccc2nsnc12,.,17,1,.,.,2,2
Cc1cccc(N2C(=O)C=CC2=O)c1,3690,-0.8,0,.,-18,17,1
Cc1onc(-c2ccccc2)c1C(=O)Nc1ccon1,11419,1.3,5,-4,.,7,5
COCCCNC(=O)C[C@H]1C[C@H](C(=O)N2CCCCC2)[C@@]2(CCc3ccccc3)c3[nH]c4ccc(Cl)cc4c3CCN2C1=O,3525,2.6,-5,.,-10,-12,6
CCOC(=O)c1ccc(NC(=O)C2=C(C)Nc3nc(CCCO)nn3C2c2cccc(C)c2)cc1 (configuration not stated),5993,1.4,12,-5,-2,.,.
O=C(COc1ccccc1F)NCC(c1ccco1)N1CCCC1 (configuration not stated),4483,6.2,15,9,-4,1,0
N#C/C(=C\Nc1ccc2c(c1)OCCO2)c1nc(-c2ccccc2)cs1,2225,-4.3,-11,3,-21,-16,-8
CCC(=O)Nc1ccc(Cl)c(NC(=O)c2cccc(OC)c2)c1,1901,6.3,0,-4,-8,-1,3
CCOC(=O)NN1C(=O)c2ccccc2NC1C (configuration not stated),3137,2.2,6,-4,-25,3,10
CC(C)=CCC/C(C)=C/CNC(=O)C[C@H]1C[C@H](C(=O)N2CCCCC2)[C@@]2(C)c3[nH]c4cc(-c5ccco5)ccc4c3CCN2C1=O,2967,-10,5,.,-17,0,2
CCOC(=O)c1sc2nc(COC(=O)c3c(F)cccc3F)[nH]c(=O)c2c1C,5253,0.5,-7,4,-15,-7,5
CC(OC(=O)c1ccc(-n2cnnn2)cc1)C(=O)Nc1ccc(F)c(F)c1F (configuration not stated),8356,2.4,6,.,-8,3,0
O=C(CSC(=S)N1CCCC1)N1CCN(S(=O)(=O)c2ccccc2F)CC1,?,2.4,5,-11,-15,9,8
CC(=NNC(=O)Cc1ccc(Cl)c(Cl)c1)c1cccnc1,.,0.0,-4,.,.,4,0
C=CCn1nc(-c2ccccc2)c(N2CCCCC2)cc1=O,2846,3.9,13,-7,-3,2,0
COc1ccc(NC(=O)c2ccc(N3C(=O)C4CC=C(C)CC4C3=O)cc2)c(OC)c1 (configuration not stated),3511,3.8,-7,-17,-10,-9,9
O=C(Cn1c(=O)c2cccn2c2ccccc21)Nc1cc(F)ccc1F,8896,1.2,1,-7,-4,9,6
Cc1cccc(N2C(=O)CSC2=NNC(=O)c2cccnc2)c1C,.,4.2,10,.,.,8,1
O=C(NCCN1C(=O)S/C(=C/c2cccnc2)C1=O)C1CC(=O)N(Cc2ccccc2)C1 (configuration not stated),4414,-0.6,1,3,-18,-5,7
O=C(NCc1ccccc1)C1CC1C(NP(=O)(c1ccccc1)c1ccccc1)c1ccccc1 (configuration not stated),.,-2.4&-1.9,0&7,.,.,-6&8,12&6
COc1ccc(C(=O)COC(=O)/C=C/c2ccco2)cc1F,7460,17,9,.,-27,6,3
COc1cc(CN2CCN(c3cc(C)ccc3C)CC2)cc([N+](=O)[O-])c1O,.,3.4,12,0,.,9,0
CCOc1ccc2oc(C(=O)OCC(=O)N3CCCC(C)C3)c(C)c2c1 (configuration not stated),.,-2.8,1,.,16,7,-4

# Entries from the list above that have a nitro group on carbon:
SMILES,Bead autofluor,RN4220 kill,ugtP null kill,BJeLR viability,PrP 5UTR inh,Mtb hypoxia rep,Mtb hypoxia rep growth
O=C(c1cc2cccc([N+](=O)[O-])c2oc1=O)N1CCOCC1,3132,2.1,2,-2,-14,6,14
COc1cc(CN2CCN(c3cc(C)ccc3C)CC2)cc([N+](=O)[O-])c1O,.,3.4,12,0,.,9,0

# The listing continues:
SMILES,Bead autofluor,RN4220 kill,ugtP null kill,BJeLR viability,PrP 5UTR inh,Mtb hypoxia rep,Mtb hypoxia rep growth
O=C(O)c1cc2c(o1)CCCC2=NO,.,-0.4,-1,.,.,-2,-2
Cc1cc2cc3c(cc2nc1SCC(=O)OC(C)C)OCCO3,3868,6.2,9,-3,-28,7,7
CCn1c(SCC(=O)NCCc2ccccc2)nc2c([nH]c3ccccc32)c1=O,5344,4.1,-1,-8,-22,1,4
COc1ccc2c(C)cc3n[nH]c(=S)n3c2c1,4594,5.9,2,-5,-14,7,4
COC(=O)c1nc(NNC(=O)c2ccccc2)sc1-c1ccccc1,3671,5.0,5,4,-26,11,1
COC(=O)C1NC(C(NC(=O)COc2ccccc2)C(=O)NC2CC2)SC1(C)C (configuration not stated),.,2.3,2,.,.,15,8
O=C(Nc1ccccc1C(=O)Nc1ccc2c(c1)OCO2)c1cccs1,4740,-3.1,-4,-6,6,.,.
CCCc1nn2c(N)c(/C=C3\C=Nc4ccccc43)c(=O)nc2s1,3081&11301,43&10,10&-12,-6&-5,-14&-3,-11&1,11&0
Cn1c(-c2cc(Cl)ccc2O)nc2c1c(=O)[nH]c(=O)n2Cc1ccccc1,3525,3.7,-2,.,-13,-1,0
COc1cc(C=NNC(=O)CCC(=O)Nc2ccc(Br)cc2)ccc1O,.,5.3,14,.,.,16,5
Nc1cccc(Nc2nc(OC(C(F)(F)F)C(F)(F)F)nc(OC(C(F)(F)F)C(F)(F)F)n2)c1,3099,87,77,1,-3,-7,8
O=C(C1CCN(S(=O)(=O)N2CCC3(CC2)OCCO3)CC1)N1CCN(Cc2ccccc2)CC1,10093,2.7,3,-5,-1,2,6
CCCCOC(=O)c1cc(C)nc2ccc(Br)cc12,8117,12,13,-5,-1,4,6
Cc1cc(C)cc(NC(=O)OCCN2CCN(Cc3ccccc3)CCC2=O)c1,2915,6.4,5,-6,8,-1,8
Cc1ccc(CSCC(=O)NCCc2ccccc2)cc1,4108,7.3,2,1,-27,9,4
COc1ccc(/C=C(\C#N)C(=O)OCC(=O)NCc2ccccc2OC)cc1,5382,-1.2,2,-7,-16,-4,7
CC1CN(C(C)CO)C(=O)c2cccc(N(C)C)c2OC1CN(C)C(=O)NC1CCCCC1 (configuration not stated),.,2.7,2,.,.,6,6
CC1=C(C(=O)N2CCCCC2)C(c2cccs2)C2=C(CCCC2=O)N1 (configuration not stated),2829,-16,-2,-2,-19,6,-1
Cc1ccsc1C(=O)OCc1cc(=O)n2ccsc2n1,4569,5.7,7,.,-110,3,8
O=C(c1ccc2c(c1)ncn2C1CCCCCC1)N1CCC2(CC1)OCCO2,3306,-17,-8,1,-16,9,1
COC(CNC(=O)c1ccc2c(c1)nc(C)n2-c1cc(C)cc(C)c1)OC,2960,2.8,0,6,4,-10,8
CCc1ccc(-c2cn3c(n2)SCC3)cc1,2454,6.0,5,10,-73,8,1
Cc1cc2[nH]c(=O)c(=O)[nH]c2cc1S(=O)(=O)Nc1cccc(F)c1,5104,1.6,9,4,-8,-4,2
CS(=O)(=O)Nc1nnc(CCc2ccccc2)s1,3678,7.7,4,-13,-17,-2,5
O=C(O)c1ccc(Sc2nnc(-c3cccc(Br)c3)o2)c([N+](=O)[O-])c1,22792*,9.6,-6,4,-12,7,9
Cc1ccccc1Nc1nc(N)nc(COC(=O)c2cccc(S(=O)(=O)N(C)C)c2)n1,2280,3.3,9,-5,-7,2,3
C=CCn1c(=S)[nH]c2sccc2c1=O,3712,5.0,8,3,-27,12,8
COc1cc2c(cc1OC)C(=S)NC(C)(C)C2,5745,3.7,2,-3,3,4,-4
CSc1nnc(-c2ccccc2)n1C,6807,1.1,1,8,-28,9,-2
O=C(CNCc1ccc(F)cc1)Nc1ccc(C(=O)N2CCCCC2)cc1,3680,.,.,9,-24,.,.

# 4 compounds from above, ordered by count of non-hydrogen atoms, ascending.
SMILES,Bead autofluor,RN4220 kill,ugtP null kill,BJeLR viability,PrP 5UTR inh,Mtb hypoxia rep,Mtb hypoxia rep growth
CSc1nnc(-c2ccccc2)n1C,6807,1.1,1,8,-28,9,-2
CS(=O)(=O)Nc1nnc(CCc2ccccc2)s1,3678,7.7,4,-13,-17,-2,5
Cc1cc2[nH]c(=O)c(=O)[nH]c2cc1S(=O)(=O)Nc1cccc(F)c1,5104,1.6,9,4,-8,-4,2
O=C(CNCc1ccc(F)cc1)Nc1ccc(C(=O)N2CCCCC2)cc1,3680,.,.,9,-24,.,.

# The list continues:
SMILES,Bead autofluor,RN4220 kill,ugtP null kill,BJeLR viability,PrP 5UTR inh,Mtb hypoxia rep,Mtb hypoxia rep growth
N#CCC(=O)N/N=C/c1cc(Br)ccc1OCc1cccc2ccccc12,3100,.,.,-3,-23,.,.
O=C(Nc1cccnc1)c1ccco1,8896,3.8,2,-2,1,6,0
Cn1nc([N+](=O)[O-])nc1Sc1nnnn1-c1cccc(C(=O)O)c1,5146,6.2,1,7,-29,10,1
COc1ccc(OC)c2sc(NC(=O)c3ccc(Br)s3)nc12,4366,-1.0,5,-1,-5,1,1
CCCOc1ccc(-c2nc(OC)c3ccccc3n2)cc1,2748,-4.3,22,-6,-66,.,.
C=CCNc1sc(C(=O)c2ccc(C)cc2)c(N)c1C#N,4765,-1.6,1,7,-6,.,.
CC(CC(O)(C=NO)c1ccccc1)=NO (configuration not stated),.,5.0,-3,.,.,10,6
COc1ccc2cc(S(=O)(=O)NCc3cccnc3)ccc2c1,3605,0.7,-3,4,-6,-5,-2
COc1ccccc1NC(=O)C1=C(C)Nc2nnnn2C1c1ccccn1 (configuration not stated),4909,-0.4,8,-3,-1,.,.
CNC(=S)N1CCC(NC(=O)c2ccco2)CC1,.,1.1,5,2,.,13,7
Cc1cc(C)n(CCNC(=O)CC2C(=O)NCCN2Cc2ccc(C)o2)n1 (configuration not stated),2033,0.8,7,1,-21,9,-2
Cc1ccc(C(=O)N2CCN(Cc3ccc4c(c3)OCO4)CC2)cc1[N+](=O)[O-],2499,3.3,-3,-1,-9,13,1
O=S(=O)(O)c1cccc2c(N=Nc3ccc(O)c4ncccc34)cccc12,3334,35,-4,9,-11,16,-2
CCn1nc(C(=O)OCC(=O)c2cc(C)n(Cc3cccs3)c2C)c2ccccc2c1=O,4260,-10,-19,-13,-12,8,19
C#CCOCCOCCOCCNc1nc(N2CCN(C(=O)C(CCCCN)n3cc(C(N)CO)nn3)CC2)nc(N2CCN(C(=O)C(C(C)CC)n3cc(C(N)Cc4ccc(O)cc4)nn3)CC2)n1 (configuration not stated),.,0.7,2,.,.,2,3
CC(C)Sc1nnc(SCC(=O)NCCCN2CCCC2=O)s1,4131,7.8,2,.,-27,10,4
COc1ccc2nc(C)cc(N3CC(C)OC(C)C3)c2c1 (configuration not stated),8464,3.4,-12,-2,-16,-1,9
CC1CC(C)(C)CC2(C1)NC(=O)N(CC(=O)Nc1ccc3[nH]c(=O)[nH]c3c1)C2=O (configuration not stated),?,2.2,3,.,-8,1,6
Cc1csc2nc(O)c(C(=O)NC3CCCCC3C)c(=O)n12 (configuration not stated),5827,-4.9,22,15,-28,11,-2
Cc1ccc(OCC(=O)N[C@@H](C)c2nnc3ccccn23)cc1C,6094,1.9,4,2,-12,0,4
Cc1nc(CC(=O)N2CCN(c3cccc(C)c3C)CC2)cs1,20386*,3.7,0,2,-20,19,10
COc1cccc(NC(=O)CSC2=C(C#N)C(c3ccco3)C3=C(CCCC3=O)N2)c1 (configuration not stated),4759,1.7,-5,1,-4,.,.
N#Cc1cnn2c(-c3ccccc3)ccnc12,3048,5.6,5,1,0,5,-1
O=C(CSc1nnc(Cc2cccs2)n1C1CCCCC1)N1CCN(C(=O)c2ccco2)CC1,3389,7.5,6,5,-11,.,.
C=CCOC(=O)C1=C(C)NC(=O)NC1c1ccc(OC(=O)c2ccco2)c(OC)c1 (configuration not stated),2771,-15,-1,14,-5,13,-15
CC12CCC(C(=O)N3CCCc4ccccc43)(OC1=O)C2(C)C (configuration not stated),2452,9.7,6,1,-11,7,-4
